YopH inh: YopH tyrosine phosphatase inhibitors, primary screen, biochemical, fluorescence Ex485/Em525; YopH tyrosine phosphatase [Yersinia enterocolitica]; inhibition, %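 (about 10 µM by stock and volumes)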; hit rate 0.16% among 140,000; AID 898, 2007;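 active = inhibition of 50% or more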;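 also: controls were vehicle for no effect and minimum signal wells for full effect; inactives centre near -20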
Arbovirus anti: antivirals against arbovirus infection, primary screen, cell-based, full library, 10K replicate subset. arbovirus infection cell-based antiviral screen. inhibition, % at 10 µM. hit rate 0.37% among 200,000;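 active = inhibition from about 30%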;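 also: bluetongue infection of BSR cells; cell survival read as ATP light after 72 h; 0% = infected wells without compound and 100% = uninfected wells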
RecA intein inh: Mtb RecA intein splicing inhibitors, primary screen, biochemical, fluorescence, HTS | Protein RecA (Mycobacterium tuberculosis (strain ATCC 25618 / H37Rv)), P9WHJ3 | cell-free RecA intein splicing | inhibition, %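 (about 9 µM by stock and volumes)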 | hit rate 0.75% among 290,000; in the data active = inhibition above about 30%; inconclusive = no clear call, values can overlap the other calls;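 also: 0% = vehicle wells and 100% = reference inhibitor control wells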
Target sequence (P9WHJ3 whole entry, looked up): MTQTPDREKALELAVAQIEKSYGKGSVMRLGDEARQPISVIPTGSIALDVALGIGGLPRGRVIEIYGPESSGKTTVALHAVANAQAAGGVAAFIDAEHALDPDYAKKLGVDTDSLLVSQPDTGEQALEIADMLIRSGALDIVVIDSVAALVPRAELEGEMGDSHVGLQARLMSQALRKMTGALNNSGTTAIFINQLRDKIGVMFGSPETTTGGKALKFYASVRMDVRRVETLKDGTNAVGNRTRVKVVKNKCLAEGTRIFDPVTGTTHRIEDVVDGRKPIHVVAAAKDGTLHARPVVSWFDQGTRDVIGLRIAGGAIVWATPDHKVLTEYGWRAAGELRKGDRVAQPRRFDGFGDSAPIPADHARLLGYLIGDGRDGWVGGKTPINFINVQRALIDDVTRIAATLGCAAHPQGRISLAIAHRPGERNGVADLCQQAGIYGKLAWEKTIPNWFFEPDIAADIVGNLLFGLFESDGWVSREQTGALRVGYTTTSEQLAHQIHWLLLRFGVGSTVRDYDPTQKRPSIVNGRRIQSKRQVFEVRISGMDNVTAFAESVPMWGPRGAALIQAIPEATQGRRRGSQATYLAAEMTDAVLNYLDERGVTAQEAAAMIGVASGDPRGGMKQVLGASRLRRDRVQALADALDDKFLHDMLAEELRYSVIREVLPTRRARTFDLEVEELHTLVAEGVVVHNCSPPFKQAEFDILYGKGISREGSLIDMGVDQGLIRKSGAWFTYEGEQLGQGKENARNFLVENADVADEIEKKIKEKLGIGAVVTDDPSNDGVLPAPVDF
Mtb betalactam: beta-lactam sensitization of Mtb H37Rv, H37Rv | M. tuberculosis H37Rv growth with meropenem, percent inhibition; hits of this screen are not shown here | inhibition, % at 25 µM | hit rate 0.27% among 330,000;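 active = about 74% or more and at least 40 points above the plate without the antibiotic, then above 30% in a dose series; inconclusive = first-round hits that could not be retested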;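 also: growth measured after seven days incubation then overnight dye step; 0% = bacteria only wells and 100% = bacteria with antibiotic; twin plates without the antibiotic show which effects depend on it; some results filed as inactive read as strong as hits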
Mtb growth: M. tuberculosis H37Rv growth inhibitors, H37Rv strain (AID 1626) | M. tuberculosis H37Rv growth inhibition; higher % means a stronger effect | inhibition, % at 10 µM; hits with a dose series show IC50 in µM | hit rate 0.95% among 220,000;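 active = confirmed in a dose series; inconclusive = inhibition above 80% but not taken into the dose series; inactive = below 80% or under 30% at every dose of the series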;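 also: bacteria incubated seven days before Alamar blue readout; 0% = bacteria only wells and 100% = bacteria with antibiotic wells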
Arbovirus anti repeat: recorded beside Arbovirus anti, whose call it bears; inhibition, %; measured here: 10K subset replicate screen; many hits read low in the repeat;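 first of two repeat runs on a subset; 0% = infected and 100% = uninfected wells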
The depositor's hits bear a star; ? = inconclusive; . = no result given. This is a subset, so the mix of outcomes need not match the whole.

SMILES	YopH inh	Arbovirus anti	RecA intein inh	Mtb betalactam	Mtb growth	others
Cc1ccc(Cl)cc1NC(=O)CCS(=O)(=O)c1cccc2nonc12	.	.	1.8	11	.
CC(C)(C)C(=O)Nc1nnc(SCc2ccc(F)cc2)s1	-18	15	-1.6	10	-2%
CCOC(=O)Cn1nnc2c(sc3nc4c(c(-c5ccccc5)c32)CCC4)c1=O	-20	7	-2.4	-5	15%
CCc1ccc(-n2c(SCc3cc(=O)n4cc(Br)ccc4n3)nc3[nH]ncc3c2=O)cc1	.	4	0.7	73	59%
O=S(=O)(NC1CCCCC1N1CCN(c2ccccc2F)CC1)c1ccc(Cl)cc1 (stereo not drawn)	.	.	17	9	.
COc1ccc(S(=O)(=O)N2CCOC23CCN(S(=O)(=O)c2ccc(C)cc2)CC3)cc1	.	.	3.6	-11	.
CC(C)CNC(=O)c1cc([N+](=O)[O-])ccc1N1CCOCC1	-9	0	2.2	-4	-4%
CC(=NCCN(C)C)c1c(O)n(Cc2ccccc2)c(=O)[nH]c1=O	.	.	-1.8	-6	6%
CCC(CC)C1=NN2C(=N)/C(=C/c3ccc(OC(=O)c4ccco4)cc3)C(=O)N=C2S1	.	.	8.1	99	.
Cc1cccc(NC(=O)Cc2ccc(F)cc2)c1	-26	0	-1.3	-2	-5%
O=C(CSc1nnc(CNC(=O)c2c(F)cccc2Cl)o1)NCc1ccccc1	.	.	-4.7	2	.
CCOc1ccc(-c2ncncc2-c2ccccc2OC)c(O)c1	.	.	0.2	6	.

Filtered by structure: the compounds so far with an aryl thioether with sulfur outside any ring
SMILES	YopH inh	Arbovirus anti	RecA intein inh	Mtb betalactam	Mtb growth	others
CC(C)(C)C(=O)Nc1nnc(SCc2ccc(F)cc2)s1	-18	15	-1.6	10	-2%
CCc1ccc(-n2c(SCc3cc(=O)n4cc(Br)ccc4n3)nc3[nH]ncc3c2=O)cc1	.	4	0.7	73	59%
O=C(CSc1nnc(CNC(=O)c2c(F)cccc2Cl)o1)NCc1ccccc1	.	.	-4.7	2	.

Reprinted from the entries so far for reference:
SMILES	YopH inh	Arbovirus anti	RecA intein inh	Mtb betalactam	Mtb growth	others
COc1ccc(S(=O)(=O)N2CCOC23CCN(S(=O)(=O)c2ccc(C)cc2)CC3)cc1	.	.	3.6	-11	.
CC(C)CNC(=O)c1cc([N+](=O)[O-])ccc1N1CCOCC1	-9	0	2.2	-4	-4%
CC(=NCCN(C)C)c1c(O)n(Cc2ccccc2)c(=O)[nH]c1=O	.	.	-1.8	-6	6%
CCC(CC)C1=NN2C(=N)/C(=C/c3ccc(OC(=O)c4ccco4)cc3)C(=O)N=C2S1	.	.	8.1	99	.
Cc1cccc(NC(=O)Cc2ccc(F)cc2)c1	-26	0	-1.3	-2	-5%
O=C(CSc1nnc(CNC(=O)c2c(F)cccc2Cl)o1)NCc1ccccc1	.	.	-4.7	2	.
CCOc1ccc(-c2ncncc2-c2ccccc2OC)c(O)c1	.	.	0.2	6	.

More results follow:
SMILES	YopH inh	Arbovirus anti	RecA intein inh	Mtb betalactam	Mtb growth	others
CC(C)(C)NC(=O)C(=O)NNC(=O)c1ccc(C(C)(C)C)cc1	-39	-25	-1.0	96	?
CCCn1c(=O)c2c(C(F)(F)F)cc(-c3cccs3)nc2n(CCC)c1=O	-12	13	-1.1	-4	2%
CCCC1=NN(c2ccc([N+](=O)[O-])cc2)C(=O)/C1=C\N(C)C	6	10	-1.0	1	20%
CC(C)(C)c1nc[nH]c(=O)c1Br	-30	-3	3.8	22	15%
CCc1ccc(N2C(=O)CC(Cn3nc(C)cc3C)C2=O)cc1 (stereo not drawn)	.	.	-0.9	-6	-16%
Cc1ccc(OCCn2cc(Br)c(=O)[nH]c2=O)cc1	-46	0	0.6	-8	-4%
O=C(CCCN1C(=O)S/C(=C\C=C\c2ccccc2)C1=O)Nc1ccc(O)cc1	.	.	5.0	0	.
O=C(Nc1ccc(Cl)cn1)c1cccc(F)c1	-60	-13	0.0	11	-1%	Arbovirus anti repeat=-15
COc1ccc(-c2nc(CS(=O)CC(=O)NC3CCC(C)CC3)c(C)o2)cc1OC (stereo not drawn)	.	.	-0.6	-2	.
Cc1ccc(-c2nnnn2CS(=O)(=O)c2ccccc2)cc1	13	2	.	11	-2%
COc1cccc(CCNC(=O)CCCC(=O)c2ccccc2)c1	.	.	2.1	0	.
Cc1ccc(C)c(NC(=O)COC(=O)CC2c3ccccc3CCN2S(=O)(=O)c2ccc(F)cc2)c1 (stereo not drawn)	-17	-3	10	-4	-3%
S=C(NCc1ccc(Cl)cc1)NC12CC3CC(CC(C3)C1)C2	-42	-37	18	99	-6%
O=C(NCn1cnccc1=O)c1ccccc1	-8	2	-2.2	4	-5%
Nc1ccc(-n2nnnc2CN2CCOCC2)cc1	-25	-5	1.9	-4	3%
CCc1nnc(NC(=O)Cn2c(=O)oc3ccccc32)s1	-8	1	0.0	-8	11%
COc1ccccc1CCNC(=O)C(=O)NCC1OCCN1S(=O)(=O)c1ccc(C)cc1 (stereo not drawn)	.	.	0.9	-4	.
Cc1ccc(C)c(NC(=O)CN2C(=O)c3ccccc3C2=O)c1	.	.	-2.0	-12	.
O=S(=O)(c1ccccc1)N(Cc1ccc(Cl)cc1)c1ccncc1	.	.	0.3	-3	.
Cn1c(=O)c(=O)n(C)c2cc(S(=O)(=O)N3CCN(C4CCCCC4)CC3)ccc21	-30	-4	-1.9	-7	1%
CCCCn1c(N)c(S(=O)(=O)c2ccc(C)cc2)c2nc3ccccc3nc21	-27	-25	-4.6	49	11%
N#C/C(=C\c1ccc[nH]1)C(=O)NCC1CCCO1 (stereo not drawn)	.	.	-0.1	7	-6%
C=CCn1c(NCc2ccc(OC)cc2)nc2ccccc21	.	.	-2.7	-4	.
CC(C)(C)NC(=O)CSc1nnc(-c2ccncc2)n1Cc1ccccc1	-37	5	0.7	5	7%
CC1(C)Cc2c(sc(NC(=O)/C=C/C(=O)O)c2C#N)CO1	.	.	2.5	-5	-5%
O=C(COC(=O)C1CC2C=CC1C2)Nc1ccc2c(c1)OC(F)(F)O2 (stereo not drawn)	-7	8	5.5	3	-9%	Arbovirus anti repeat=4
COc1cccc(CC(=O)OCC(=O)NCC(=O)Nc2cccc(C)c2C)c1	.	.	-2.4	-5	.
O=C(COC(=O)c1cccc([N+](=O)[O-])c1)NCC1CCCO1 (stereo not drawn)	.	3	9.9	2	-1%
CCOC(=O)C1CCN(C(=O)c2cc3ccccc3oc2=O)CC1	.	3	-2.7	-1	4%
CCOC(=O)c1ccc(NC(=O)NC2CC3CCC(C2)N3Cc2nnnn2Cc2ccco2)cc1 (stereo not drawn)	23	6	3.8	-3	13%
Cc1ccc(CN2C(=O)c3ccccc3NC2c2cc(Br)ccc2O)cc1 (stereo not drawn)	.	.	26	4	.
COc1ccccc1-c1nnc(NC(=O)c2ccc(S(=O)(=O)N(C)Cc3ccccc3)cc2)o1	13	-5	.	77	?
COc1ccc(CCNc2oc(Cc3cccc4ccccc34)nc2C#N)cc1OC	10	5	17	48	5%
Cc1ccc(O)c(-c2cc(C(F)(F)C(F)F)nc(-c3ccccc3)n2)c1	7	-7	0.3	20	5%	Arbovirus anti repeat=-2
C=CCC1(CC=C)CCCN1C(=O)CC1C(=O)NCCN1Cc1cc(OC)cc(OC)c1 (stereo not drawn)	.	2	2.1	6	1%
CCN(CC)C(=O)Cn1cc(SCC(=O)NC)c2ccccc21	.	1	0.3	0	-1%
CCCOc1ccccc1Nc1nnc(C)c(=O)[nH]1	-30	-2	-1.4	15	-10%
CCCCCNC(=O)CN(c1ccc2c(c1)OCO2)S(C)(=O)=O	11	-1	-0.5	-5	-6%
CN1CCN(c2ncnc3scc(-c4ccccc4Cl)c23)CC1	.	.	-0.8	3	.
Cc1c(C(=O)N2CCOCC2)[nH]c2ccc(OCc3ccccc3)cc12	-19	6	3.2	14	-7%
CC(=O)c1c(C)[nH]c(C(=O)Nc2cccc(S(=O)(=O)N(C)c3ccccc3)c2)c1C	.	-11	1.1	5	-4%
CC(C)C(=O)NC(Nc1ccc(S(N)(=O)=O)cc1)C(Cl)(Cl)Cl (stereo not drawn)	-21	-2	0.0	-3	3%
Cc1nc2ccc(C(=O)N3c4ccccc4CC3C)cc2s1 (stereo not drawn)	.	-11	0.6	9	5%
CC1Sc2ccc(S(=O)(=O)N3CCC(C(=O)N(C)Cc4ccccc4)CC3)cc2NC1=O (stereo not drawn)	.	.	-0.7	-1	.
CSc1ncc(C(=O)Nc2ccccc2Cl)c(C)n1	.	.	-0.6	55	.
Cc1ccccc1N=C1SCC(=O)N1Cc1ccccc1	-36	37*	7.7	9	20%
C=C(C)C1CC=C(C)/C(=N/NC(=O)c2ccc(NC(=O)c3cccc(C)c3)cc2)C1 (stereo not drawn)	10	8	1.4	23	.
O=C(c1ccccc1)N1CCN(C(=O)c2nn3c(C(F)(F)F)cc(-c4ccccc4)nc3c2Br)CC1	.	.	0.6	-15	.
O=C(/C=C/c1cn(CC(O)CN2CCCCC2)c2ccccc12)c1cccs1 (stereo not drawn)	-16	-32	-1.0	99	?
CCOC(=O)N1CCN(C(=O)c2ccc(CS(=O)(=O)c3c(Cl)cccc3Cl)o2)CC1	-30	0	.	1	-3%	Arbovirus anti repeat=5
CC(/C=C1\SC(=S)N(NC(=O)c2cccc(O)c2)C1=O)=C\c1ccccc1	-20	-11	31*	58	41%
CNC(=O)c1cc(C(=O)c2ccc(F)cc2C(F)(F)F)c[nH]1	.	.	-5.4	16	.
COc1cccc(-n2nnc(S(=O)(=O)c3ccc(C)cc3)c2N)c1	.	-1	-7.4	-7	4%
NC(=O)c1nsc(C(=O)N(c2ccc(F)cc2)C(C(=O)NC2CCCC2)c2ccncc2)c1N (stereo not drawn)	.	.	-12	3	.
CNc1nnc(-c2ccncc2)s1	-15	2	1.5	6	-7%
OC1CCN(c2cc(-c3ccccc3)nc3cc(-c4ccc(F)cc4)nn23)CC1	.	0	-16	7	5%
Cc1ccc(C)c(NCCC#N)c1	-10	-4	-0.9	-1	1%
O=C(CCc1nnc2n(Cc3ccc(F)cc3)c(=O)c3ccccc3n12)NCCCN1CCOCC1	.	.	3.7	-4	.
O=C(CSc1ccc([N+](=O)[O-])cn1)Nc1ccc2c(c1)OCO2	.	.	-1.1	100	.
COCC(=O)N(Cc1cc2ccc(C)cc2[nH]c1=O)c1ccc(OC)cc1	-38	-3	3.7	-6	-2%

More entries follow:
SMILES	YopH inh	Arbovirus anti	RecA intein inh	Mtb betalactam	Mtb growth	others
COc1cc2c(cc1NC(=S)NC(=O)/C=C/c1ccc(OC)c(OC)c1)oc1ccccc12	-23	-2	.	.	?
CCCc1cc(=O)[nH]c(SCC(=O)N(C)C2CCS(=O)(=O)C2)n1 (stereo not drawn)	-10	4	0.5	-3	-3%
O=C1c2cccc(O)c2C(=O)c2c(O)cccc21	-39	-10	13	73	4%
COc1cccc(OCC(Cn2c(C)nc3ccccc32)OC(C)=O)c1 (stereo not drawn)	.	7	1.5	-2	5%
FC(F)(F)c1cnc2c(-c3ccccc3)n[nH]c2c1	.	-3	-0.7	.	3%
CCN(c1ccccc1)S(=O)(=O)c1ccc(Cl)c(C(=O)NCC2CCCO2)c1 (stereo not drawn)	.	3	-2.8	2	1%
Cc1ccc(N2C(=O)Nc3ccccc3S2(=O)=O)cc1Cl	.	.	-0.3	1	.
COc1ccc(-c2nn(CCC#N)cc2C(=O)NCc2ccccc2)cc1[N+](=O)[O-]	.	.	-0.5	-9	.
COc1ccc(CNc2nc3ccccc3n2C)c(O)c1	.	.	-0.8	-9	.
CCN(Cc1ccccc1)S(=O)(=O)c1cc(C(=O)NC(C)C2CC3CCC2C3)ccc1OC (stereo not drawn)	-13	-9	13	2	13%
Cc1ccc(OCC(=O)NC(=S)Nc2ccc(Br)cn2)cc1C	.	-3	-1.6	2	-3%
Cc1cc(F)ccc1N1CCC(N2CCN(CCC(C)C)C(CCO)C2)CC1 (stereo not drawn)	.	-9	2.0	59	2%
Cc1c(O)nc(SCC(=O)Nc2ccc3c4c(cccc24)CC3)n(-c2ccccc2)c1=O	-19	7	3.5	-2	-4%
CCOCN(C(=O)Cn1cnc2ccccc21)c1c(C)cccc1CC	.	-6	0.2	14	-7%
O=C(CSc1nnc(Cc2ccccc2)o1)NC1CCCCC1	0	-2	1.1	4	4%
COC(=O)c1cnn2c3c(c(C)nc12)CCCC3	-31	9	.	4	-7%
CC1CN(c2nc3ccccc3nc2SCC(=O)Nc2cccc(C(F)(F)F)c2)CC(C)O1 (stereo not drawn)	.	.	7.9	0	.
